Bioassay records as filed in PubChem BioAssay.
Marburg entry inh = qHTS for inhibitors of binding or entry into cells for Marburg Virus | Potency, µM (doses to about 37.8 µM), for the others: at the top dose activity change, negative = inhibition, hits mostly inhibitors | AID 540276, 2011 | actives 1.8% (n = 300,000) | Marburg virus pseudotyped entry inhibition, cell reporter; control for the full effect not named in the record; about a third of the inactives were read at about 46 µM; active = well fitted inhibition curve with a large enough effect; inconclusive = small, poorly fitted or top-dose-only effect, or effect the other way; inactive = flat fitted curve, though single readings scatter; tested in HEK293 cells; about a fifth of its hits are not listed in these tables; note: % is set by controls: 0 for no effect and ±100 for the full control effect; luciferase read-out
Cruzain noTriton = qHTS Assay for Promiscuous and Specific Inhibitors of Cruzain (without detergent). Cruzipain (Trypanosoma cruzi), P25779. actives 2.3% (n = 200,000). AID 1476, 2009. Potency, µM, without a hit: max response, negative = inhibition, usual class: inhibitors. purified cruzain, Z-FR-AMC fluorescence, no detergent; active = well fitted curve in the direction sought with a large enough effect; inconclusive = small, poorly fitted or top-dose-only effect, or another doubt; inactive = no such curve, though single readings can be large; an effect the other way counts as inactive or inconclusive;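 note: plate controls were enzyme without inhibitor for no effect and buffer without enzyme for full effect; nearly all actives have a fitted effect of over 40% in size; top concentration of the series not given in the record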
Target sequence (P25779 123-467 limits assumed): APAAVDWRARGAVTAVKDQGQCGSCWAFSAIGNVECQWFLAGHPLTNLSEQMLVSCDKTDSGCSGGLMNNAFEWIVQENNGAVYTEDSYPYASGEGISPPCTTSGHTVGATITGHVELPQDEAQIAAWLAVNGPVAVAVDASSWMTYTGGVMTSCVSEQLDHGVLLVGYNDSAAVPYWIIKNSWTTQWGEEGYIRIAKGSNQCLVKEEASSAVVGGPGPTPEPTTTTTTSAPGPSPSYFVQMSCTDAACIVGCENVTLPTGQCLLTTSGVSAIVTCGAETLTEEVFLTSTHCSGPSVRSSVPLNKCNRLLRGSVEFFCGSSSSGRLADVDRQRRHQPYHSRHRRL
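Detergent-free condition (0.00005% Triton X-100) in acetate buffer pH 5.5 with DTT. 1.5 nM enzyme and compound were pre-mixed 15 min, then 2 uM Z-FR-AMC substrate added; reaction progress from fluorescence change between first and third reads (60 s).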
StopGo reporter = High Throughput Screening for Foot and Mouth Disease Virus Antivirals | human cells with a luciferase reporter of 2A StopGo recoding; control for the full effect not named in the record | AID 1159524, 2015 | actives 1.2% (n = 410,000) | Potency, µM (series often up to 57.9 µM), for inactives: top-dose signal change, negative = less light; active = well fitted falling curve with a large enough effect; inconclusive = small, poorly fitted or top-dose-only effect; inactive = no such curve, though single readings can be large or run the other way; tested in HEK293T cells; note: % is set by controls: 0 for no effect and ±100 for the full control effect; nearly all actives have a fitted effect of over 45% in size; luciferase light after 4 h
RE007 growth inh = qHTS Assay for Inhibitors of the HIV-1 protein Vpr. S. pombe RE007 Vpr strain, BacTiter-Glo ATP luminescence, 24 h; control for the full effect not named in the record. Potency, µM (highest dose often 92.2 µM), inactives show at the top dose activity change, negative = less growth. actives 0.21% (n = 360,000). AID 651644, 2012; active = well fitted falling curve with a large enough effect; inconclusive = small, poorly fitted or top-dose-only effect; inactive = no such curve, though single readings can be large or run the other way;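 note: % is set by controls: 0 for no effect and ±100 for the full control effect; nearly all actives have a fitted effect of over 50% in size; the assay follows cell death caused by Vpr and the record does not say whether a fall means rescue or toxicity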
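Fission yeast strain RE007, carrying one chromosomally integrated HIV-1 vpr copy, was seeded at OD 0.01 in PMG+AL medium with 23 nL pinned compound. After 24 h at 30 °C and 99% humidity, viability was read by BacTiter-Glo luminescence.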
NS1 inh = qHTS Assay for Inhibitors of Influenza NS1 Protein Function; S. cerevisiae slowed by influenza A NS1, growth recovery by OD600; Potency, µM (doses to about 46.1 µM), for the others: at the highest dose activity, positive = more growth; actives 0.4% (n = 270,000); AID 2326, 2010; note: actives are rising curves; nearly all actives have a fitted effect of over 50% in size
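S. cerevisiae expressing influenza A NS1, grown in glucose, washed, then diluted 1:100 into pH 6.0 -URA galactose medium with 23 nl compound. Growth recovery read as OD600; NS1-free strain serves as control.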
Cruzain Triton = qHTS Assay for Promiscuous and Specific Inhibitors of Cruzain (with detergent); Cruzipain (Trypanosoma cruzi), P25779; purified cruzain, Z-FR-AMC fluorescence, 0.01% Triton; Potency, µM, without a hit: max response, negative = inhibition, usual class: inhibitors; actives 0.43% (n = 200,000); active = well fitted curve in the direction sought with a large enough effect; inconclusive = small, poorly fitted or top-dose-only effect, or another doubt; inactive = no such curve, though single readings can be large; an effect the other way counts as inactive or inconclusive;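 note: plate controls were neutral wells for no effect and buffer without enzyme for full effect; nearly all actives have a fitted effect of over 40% in size; top concentration of the series not given in the record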
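15 min RT preincubation of 1.5 nM cruzain with compound, then 2 uM Z-FR-AMC added; kinetic AMC fluorescence, 60 s delta. Triton X-100 0.01%, pH 5.5.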
SARS PLpro yeast = qHTS of Yeast-based Assay for SARS-CoV PLP; AID 485353, 2010; actives 0.19% (n = 330,000); Potency, µM (top dose mostly 32.9 µM), for the others: at the highest dose activity, positive = growth rescue; S. cerevisiae expressing SARS-CoV PLpro, growth rescue; control for the full effect not named in the record; note: 0% is about no effect; nearly all actives have a fitted effect of over 55% in size; growth read by luminescence after 48 h
LASV entry inh = qHTS for Inhibitors of binding or entry into cells for Lassa Virus | Lassa virus pseudotype entry inhibition, cell reporter; control for the full effect not named in the record | Potency, µM (series often up to 37.9 µM), for inactives: top-dose activity change, negative = inhibition, hits mostly inhibitors | actives 1.2% (n = 300,000); active means well fitted inhibition curve with a large enough effect; inconclusive means small, poorly fitted or top-dose-only effect, or effect the other way; inactive means flat fitted curve, though single readings scatter; tested in HEK293 cells; note: % is set by controls: 0 for no effect and ±100 for the full control effect; nearly all actives have a fitted effect of over 50% in size; luciferase read-out
An asterisk follows results filed as active; ? = inconclusive; . = no result given; & = joins results of further samples; [ ] = another dose, or the depositor's remark. Unless noted, calls come from the whole dose curve; as a rule, active means well fitted rising curve with a large enough effect; inconclusive means small, poorly fitted or top-dose-only effect; inactive means no such curve, though single readings can be large or run the other way. Potency is the fitted concentration of half-maximal effect. An unsorted share of the library, and some 4.6% of all compounds hit somewhere here.

SMILES	Marburg entry inh	Cruzain noTriton	StopGo reporter	RE007 growth inh	NS1 inh	Cruzain Triton	SARS PLpro yeast	LASV entry inh
COc1ccc(OC)c(NC(=O)C2C3C=CC(C3)C2C(=O)NCc2cccnc2)c1 (stereo not drawn)	?	.	8%	11%	.	.	-1%	0%
COc1ccc(C(=O)C2CCCN(C(=O)Cn3nc(C)cc3C)C2)cc1F (stereo not drawn)	.	.	-15%	-7%	2%	.	-1%	.
Cc1ccccc1NC(=O)Nc1nc2ccc(S(C)(=O)=O)cc2s1	1%	?	36%[activator]	-5%	6%	-2.7%	6%	-3%
CCCN(CC(=O)Nc1ccccc1C)C(=O)/C=C/c1cccs1	29%	-11%	-13%	-5%	8%	-3.3%	14%	2%
CCCSc1nnc(NC(=O)CSc2sc3c(O)cc(=O)[nH]c3c2C#N)s1	14%[46.1 µM]	.	3%	-11%	17%	.	3%	-1%[46.1 µM]
Cn1c(CN2CCN(C(=O)c3ccco3)CC2)nc2cc([N+](=O)[O-])ccc21	10%	.	-17%	-2%	4%	.	-3%	5%
COc1cc(NC(=O)c2ccc(Cl)cc2)c(OC)cc1Cl	-12%	2%	-6%	-3%	-5%	-3.0%	4%	-8%
Cc1cc(C(=O)N/N=C/c2c(CO)cnc(C)c2O)c2ccccc2n1	?	.	0%	-13%	-8%	.	9%	?
CC1CN(C(=O)c2ccc(NS(=O)(=O)c3ccc(F)c(F)c3)cc2)CC(C)O1 (stereo not drawn)	27%	.	-17%	15%	.	.	4%	?
CC(C)c1cc(C(=O)Nc2sc3c(c2C#N)CCC3)no1	?	-10%	21%	9%	-53%	-5.7%	1%	-19%
CCN(C(N)=S)c1ccccc1	6%	3%	-12%	-18%	2%	4.0%	18%	12%
CN1CCN(c2nc(-c3ccccc3)c3cc(Cl)ccc3n2)CC1	-19%	17%	-2%	-6%	-9%	-3.4%	-6%	7%
O=C1CC(Nc2ccc(N3CCOCC3)cc2)C(=O)N1Cc1ccccc1 (stereo not drawn)	14%	-7%	-4%	?	15%	-2.5%	-16%	2%
O=C(CCCNC(=O)c1ccc(Cl)cc1)NCc1ccccc1F	6%[46.1 µM]	.	5%	0%	6%	.	0%	-28%[46.1 µM]
Cc1ccc(S(=O)(=O)Nc2cccnc2Oc2ccc(Cl)cc2)cc1	.	.	-17%	14%	-7%	.	-4%	.
CCn1nc(C)c2c(-c3ccccc3)cc(=O)n(C(C)C(=O)NCCc3ccc(Cl)cc3)c21 (stereo not drawn)	.	?	-4%	.	.	-8.5%	.	?
Cc1cccc(NC(=O)c2cc(NC(=O)c3ccco3)ccc2Cl)n1	?	-3%	-15%	4%	-57%	4.0%	-12%	3%
CC12CN3CCN(CC(C3)C1(O)CN1CCOCC1)C2 (stereo not drawn)	4%	6%	-12%	10%	-4%	5.2%	2%	-1%
COc1ccc(CNc2nc(-c3ccc(Cl)cc3)nn2C(=O)c2ccccc2)cc1	2%[46.1 µM]	4%	-15%	.	.	-2.5%	.	-20%[46.1 µM]
CCOC(=O)C1=C(C)Nc2ccccc2N=C1NC(=O)Cc1ccc(Br)cc1	3%	-5%	-20%	-10%	2%	-0.8%	3%	-2%
CC1=NN(c2ccc(N)cc2)C(=O)C1	1%	19%	-4%	-9%	8%	1.9%	1%	13%
Cc1cccc[n+]1CC(=O)/C=C1\N(C)c2ccccc2C1(C)C	?	-6%	?	-4%	1%	-7.2%	25%	?
Cc1nnc(NC(=O)CSc2nnc(Cc3ccccc3)n2-c2ccccc2)s1	6%	9%	-7%	5%	-16%	1.8%	.	1%
CN(C)/C(CN1CCN(C=O)CC1)=C1\N=C(c2ccccc2)OC1=O	-17%	-6%	-6%	1%	3%	-11%	-2%	?
COc1cc(Br)c(C2C(C#N)=C(N)Oc3n[nH]c(-c4cccnc4)c32)cc1OC (stereo not drawn)	?	.	-28%	4%	.	.	3%	-28%

Next section (7 carried over from the part before).
SMILES	Marburg entry inh	Cruzain noTriton	StopGo reporter	RE007 growth inh	NS1 inh	Cruzain Triton	SARS PLpro yeast	LASV entry inh
COc1ccc(CNc2nc(-c3ccc(Cl)cc3)nn2C(=O)c2ccccc2)cc1	2%[46.1 µM]	4%	-15%	.	.	-2.5%	.	-20%[46.1 µM]
CCOC(=O)C1=C(C)Nc2ccccc2N=C1NC(=O)Cc1ccc(Br)cc1	3%	-5%	-20%	-10%	2%	-0.8%	3%	-2%
CC1=NN(c2ccc(N)cc2)C(=O)C1	1%	19%	-4%	-9%	8%	1.9%	1%	13%
Cc1cccc[n+]1CC(=O)/C=C1\N(C)c2ccccc2C1(C)C	?	-6%	?	-4%	1%	-7.2%	25%	?
Cc1nnc(NC(=O)CSc2nnc(Cc3ccccc3)n2-c2ccccc2)s1	6%	9%	-7%	5%	-16%	1.8%	.	1%
CN(C)/C(CN1CCN(C=O)CC1)=C1\N=C(c2ccccc2)OC1=O	-17%	-6%	-6%	1%	3%	-11%	-2%	?
COc1cc(Br)c(C2C(C#N)=C(N)Oc3n[nH]c(-c4cccnc4)c32)cc1OC (stereo not drawn)	?	.	-28%	4%	.	.	3%	-28%
COCCn1c(SCC(=O)Nc2cc(Cl)ccc2OC)nc2c(c1=O)SC(C)C2 (stereo not drawn)	.	?	-17%	2%	-14%	-9.5%	-4%	.
O=c1[nH]c(C2CCN(S(=O)(=O)c3ccc4c(c3)OCCO4)CC2)nc2c1nnn2Cc1ccc(F)cc1	-1%[46.1 µM]	.	4%	-2%	25%	.	2%	?
CC(C)NC(=S)NC(=O)/C=C/c1ccc(F)cc1	?	-4%	-5%	-12%	-7%	-3.2%	?	-9%
CCCCN(CC)CCNC(=O)c1cn(C)c(=O)c2c1c1ccccc1n2C	-35%&-35%[46.1 µM]	-10%	3%&-24%	2%	3%	-2.3%	0%	?
CCc1ccc(-c2nc(CS(=O)CC(=O)O)c(C)o2)cc1 (stereo not drawn)	.	.	-4%	-4%	-3%	.	-3%	.
N#CCC(=O)Nc1ccc(C(=O)OCC(=O)Nc2sc3c(c2C#N)CCCC3)cc1	19%	.	-14%	-8%	.	.	6%	?
O=C(O)C1=NN(c2ccccc2)C(=O)C1	5%[46.1 µM]	.	-9%	-13%	10%	.	0%	1%[46.1 µM]
CCn1ncc(Br)c1C(=O)Nc1ccc(Cl)cn1	4%	-6%	-8%	-21%	-3%	1.2%	4%	-1%
COC(=O)c1ccccc1-c1ccc(/C=N/NC(=O)c2cc3ccccc3o2)o1	4%	?	-14%	-11%	5%	-10%	-43%	-10%
CC1(C)Cc2c(sc3nc(C4CC4)n(N)c(=O)c23)CO1	6%[46.1 µM]	.	1%	1%	0%	.	-1%	30%
CC(C)(C)OC(=O)N1CCC(c2nnc(SCc3cccc(Cl)c3)o2)CC1	11%[46.1 µM]	?	-21%	.	.	-6.7%	.	?
CNC(=O)c1cc(C(=O)c2ccc(C(F)(F)F)cc2)c[nH]1	17%[46.1 µM]	.	25%	-4%	6%	.	1%	0%[46.1 µM]
N=c1c(S(=O)(=O)c2ccc(Cl)cc2)cc2c(=O)n3ccccc3nc2n1Cc1cccnc1	.	.	-18%	4%	8%	.	-11%	.
Cc1ccc(-n2c(C)cc(/C=C3/SC(=O)N(CC(=O)N4CCOCC4)C3=O)c2C)nc1	16%[46.1 µM]	.	30%[activator]	-2%	1%	.	1%	-2%
Cc1cc(C(=O)N2CCCC(N3CCN(c4ccccc4C)CC3)C2)nc(C)n1 (stereo not drawn)	1%	.	-22%	4%	8%	.	1%	2%
CCN1CCN(S(=O)(=O)c2ccc(S(=O)(=O)N(CC)Cc3ccccc3)cc2)CC1	-19%	13%	.	3%	-2%	6.3%	1%	-11%
CC(C)NC(=O)c1ccc(COc2cc(Cl)ccc2Cl)o1	?	.	-7%	6%	-37%	.	-4%	-12%[46.1 µM]
CCN(CC)CCCN1C=C2C(=O)C(C)(OC(=O)CCc3ccccc3)C(=O)C=C2C=C1c1ccc(C#N)cc1 (stereo not drawn)	.	.	6%	-11%	5%	.	1%	.
CCCCSc1nc(C(=O)O)cc(=O)[nH]1	.	.	-4%	5%	1%	.	0%	.
CCOC(=O)N1CCN(CC(O)COc2cc(C)cc(C)c2)CC1 (stereo not drawn)	?	.	-9%	14%	0%	.	1%	-27%[46.1 µM]
COCc1c(C(=O)OC/C(O)=C(\C#N)c2nc3ccccc3[nH]2)oc2ccccc12	5%[46.1 µM]	.	30%[activator]	-17%	10%	.	1%	-6%
Cc1ccc(Cl)cc1N1CCN(C(=O)c2ccc3c(c2)CCN3S(=O)(=O)c2ccccc2)CC1	?	?	-10%	.	.	0.2%	.	?
CC(C)c1nnc(NC(=O)CCCC(=O)O)s1	-2%	-9%	-10%	4%	4%	0.7%	4%	3%
O=C(COC(=O)c1ccccc1SCC(=O)N1CCCC1)NC1CCS(=O)(=O)C1 (stereo not drawn)	?	.	13%	-9%	.	.	0%	-4%
